Screening data deposited in PubChem by National Center for Advancing Translational Sciences (NCATS).
Menin-MLL FL inh: displaces fluorescein MLL peptide from human menin | Fluorescence polarization, fluorescein-MLL peptide displacement from menin | FP activity change, % at 61.4 µM | 290,000 tested, under 10 active | AID 1766; inconclusive = falling polarisation curve, or a change in total fluorescence; inactive = total fluorescence flat and polarisation flat or rising; no compound was filed as active; the % refers to the polarisation; negative = inhibition;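 further: % of control where 0% means no effect; inhibitors lower the polarisation; unlabelled MLL peptide was the positive control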
gsp antagonist: gsp mutant antagonism. gsp-mutant cells, cAMP HTRF, 30 min; control for the full effect not named in the record. Potency, µM (doses to about 76.9 µM), for the others: at the highest dose activity change, negative = inhibition, most hits filed as inhibitors. hit rate 0.4% among 340,000. AID 624288; active = falling curve of any shape with a large fitted effect; inconclusive = falling curve, mostly with a smaller effect; inactive = flat or rising curve; cell line not stated here;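 further: intracellular cAMP measured with PDE inhibitor Ro 20-1724 present during compound exposure; potency means the concentration at half of the fitted maximal effect; on the % scale 0 is the no-effect control and ±100 the full control effect; nearly all actives have a fitted effect of over 65% in size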
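Cells in G418 medium, seeded 16-24 h, 37C; buffer exchange to DPBS + 1 mM CaCl2, 0.5 mM MgCl2, 0.05% BSA; cpds in DMSO + […] (300 uM stock), 30 min 37C; HTRF cAMP detection.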
ClpP mod: qHTS Assay for Activators of ClpP. ATP-dependent Clp protease proteolytic subunit (Bacillus subtilis (strain 168)), P80244. purified B. subtilis ClpP, FRET peptide cleavage, 20 min. Potency, µM (top dose mostly 57.5 µM), inactives show at the highest dose activity change, negative = active. hit rate 1.9% among 340,000. AID 651965, 2013; active = well fitted falling curve with a large enough effect; inconclusive = small, poorly fitted or top-dose-only effect; inactive = no such curve, though single readings can be large or run the other way; further: potency means the concentration at half of the fitted maximal effect; the source files actives as falling curves though it sought activators and does not explain the sign; nearly all actives have a fitted effect of over 65% in size; many hits overshoot -100%
Target sequence (P80244 whole entry, looked up): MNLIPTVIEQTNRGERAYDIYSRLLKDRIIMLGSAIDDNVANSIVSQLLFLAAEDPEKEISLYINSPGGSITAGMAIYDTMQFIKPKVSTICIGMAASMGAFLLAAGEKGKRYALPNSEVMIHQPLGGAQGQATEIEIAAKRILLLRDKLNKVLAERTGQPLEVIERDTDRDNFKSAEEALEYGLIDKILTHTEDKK
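Buffer: 100 mM Tris/HCl pH8, 100 mM KCl, 0.05% low protease BSA, 2.5% glycerol, 0.01% Tween-20. ClpP 10 microg/mL final; 20 min RT; delta FRET normalized to ADEP and DMSO controls.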
Sfp inh: Sfp phosphopantetheinyl transferase inhibition; Potency, µM, for the others: max response, negative = inhibition, actives largely listed as inhibitors; Q9F4F7; AID 1490; hit rate 3.5% among 310,000; Biochemical Sfp PPTase activity, qHTS; active means well fitted inhibition curve with a large enough effect; inconclusive means small, poorly fitted or top-dose-only effect, or another doubt; inactive means no such curve, though single readings can be large or run the other way;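 further: the enzyme is Sfp with the accession as filed and its product quenches rhodamine fluorescence; potency means the concentration at half of the fitted maximal effect; 0% = enzyme reaction without inhibitor and -100% = no enzyme wells; top concentration of the series not given in the record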
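Reaction rates are the 30-min fluorescence difference (ex 525, em 598 nm) in wells containing 15 nM Sfp, 5 uM rhodamine-CoA and 12.5 uM BHQ-2-YbbR at pH 7.6 with 10 mM MgCl2.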
PINK1 modulator: PINK1 expression modulation; PINK1 immunofluorescence, high-content cytometry, 24 h; Potency, µM (doses to about 76.6 µM), without a hit: at the highest dose activation (PINK1 increase), actives largely listed as activators; hit rate 0.2% among 410,000; AID 624263; active = well fitted activation curve with a large enough effect; inconclusive = small, poorly fitted or top-dose-only effect; inactive = flat fitted curve, though single readings scatter; cell line not stated here;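 further: potency means the concentration at half of the fitted maximal effect; % of control where 0% means no effect; nearly all actives have a fitted effect of over 65% in size; a mitochondrial uncoupler was the plate control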
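A stable cell line was treated with compounds at 5 concentrations for 24 hours, with CCCP as control. PINK1 levels and mitochondrial localization were measured by immunofluorescence with mitochondrial, cell and nuclear markers after fixation, read by laser-scanning cytometry.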
gsp ag: gsp mutant agonism | hit rate 0.13% among 340,000 | Potency, µM (highest dose often 76.9 µM), for the others: at the highest dose activation (cAMP increase), most hits filed as activators | AID 624287 | gsp mutant cells, cAMP HTRF, 30 min; control for the full effect not named in the record; active = well fitted activation curve with a large enough effect; inconclusive = small, poorly fitted or top-dose-only effect, or another doubt; inactive = no such curve, though single readings can be large or run the other way; cell line not stated here;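 further: phosphodiesterase inhibitor Ro 20-1724 added with compounds to block cAMP breakdown; potency means the concentration at half of the fitted maximal effect; nearly all actives have a fitted effect of over 60% in size; about a fifth of the inactives were tested at one dose only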
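Cells stably selected in G418 were plated at 2000/well, grown 16-24 hr, then given compounds in DMSO with the PDE inhibitor […] (300 uM solution added) for 30 min at 37C; cAMP was read by HTRF.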
D2 ag: human D2 receptor agonism in beta-arrestin assay | DiscoveRx PathHunter D2 beta-arrestin, luminescence, 90 min; 100% = 57 uM dopamine signal | activation, % (no concentration beside the values) | hit rate 0.084% among 360,000; in the data active = activation above about 40%; inconclusive = about 15% to 40%; inactive = below about 15%; further: compound concentration not given in the record; the text of the record calls up to 30% inactive
Target sequence (P14416 whole entry, looked up): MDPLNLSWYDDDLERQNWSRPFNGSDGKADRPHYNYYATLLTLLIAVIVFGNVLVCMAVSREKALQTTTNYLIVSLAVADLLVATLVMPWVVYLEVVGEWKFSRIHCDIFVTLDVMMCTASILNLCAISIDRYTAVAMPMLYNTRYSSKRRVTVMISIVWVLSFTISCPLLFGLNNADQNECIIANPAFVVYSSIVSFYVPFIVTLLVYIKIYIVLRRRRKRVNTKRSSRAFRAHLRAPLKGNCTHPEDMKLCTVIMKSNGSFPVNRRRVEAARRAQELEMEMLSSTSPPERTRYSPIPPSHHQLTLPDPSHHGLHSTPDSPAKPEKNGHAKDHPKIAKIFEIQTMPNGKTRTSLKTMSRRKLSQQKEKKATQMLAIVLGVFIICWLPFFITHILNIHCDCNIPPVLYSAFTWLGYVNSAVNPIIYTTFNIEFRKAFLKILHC
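DiscoveRx PathHunter D2 beta-arrestin cells (2,100/well) attached overnight, then compound-stimulated 90 min at 37 C in HBSS/10 mM HEPES/0.1% Tween-20 buffer; beta-galactosidase complementation read by luminescence after 1 h at ambient temperature. Dopamine 57 uM final (EC100) as control.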
* marks the source's active call; other numbers are inactive results; ? = inconclusive; nt = no result given; & = joins results of further samples; [ ] = another dose, or the depositor's remark.

SMILES	Menin-MLL FL inh	gsp antagonist	ClpP mod	Sfp inh	PINK1 modulator	gsp ag	D2 ag
Cc1nonc1C1CCCN1Cc1cn[nH]c1-c1ccc(-c2ccccc2)cc1 (configuration not stated)	2.9	?	0.8%	16%	5.1%	-33%[inhibitor]	-2.5
CC1(c2ccc3ccccc3c2)NC(=O)NC1=O (configuration not stated)	4.9	0%	-0.1%	12%	1.4%	1%	-2.0
COc1cc(/C=N/NC(=O)C2C3CCCCC32C)cc(Br)c1O (configuration not stated)	-5.0	-7%	?	14%	2.5%	7%[15.4 µM]	3.3
O=C(Cn1nc(-c2ccc3c(c2)OCCO3)ccc1=O)Nc1ccc(-n2cnnn2)cc1	4.6	3%	-11%	-15%	1.2%	-31%[inhibitor]	-2.0
CCOC(=O)C(=O)Nc1cc(C)nn1-c1nc2ccccc2[nH]1	9.3	?	nt	15%	6.6%	11%[15.4 µM]	-1.7
Cc1ccc(NC(=O)CN(C)CC(=O)Nc2ccc3c(c2)OCO3)cc1	nt	nt	2.3%	nt	0.7%	5%	-3.4
CCC(=O)c1ccc(OCC(=O)OCC(=O)NC2CCCCCCC2)cc1	nt	1%	0.1%	3%	0.3%	0%	2.2
Cc1cccc(OCc2nnc(SCn3nnc4ccccc4c3=O)o2)c1	-1.4	-21%	0.6%	13%	-0.7%	4%	-2.2
CN(C)CCCNC(=O)/C(=C\c1ccc(-c2ccc(Br)cc2)o1)NC(=O)c1ccccc1	7.0	22%	-15%	-16%	-1.6%	-4%	-3.6
COCCCN1C(=O)/C(=C/c2ccc(CNS(=O)(=O)c3ccccc3)o2)C(C(=O)OC)=C1C	0.3	-2%	nt	14µM*	-1.6%	-4%	-3.4
CCc1cc(-c2nnn(-c3cc(C(C)C)ccc3C)c2CC)ccc1-c1cn(CCc2c[nH]c3ccccc23)nn1	nt	nt	-9.2%	nt	0.1%	8%	-5.7
COc1cc(/C(C)=C/c2ccccc2)c2c(c1)oc1ccccc12	-5.6	nt	4.4%	-18%	nt	nt	nt
COc1cc(/C=C(/C#N)c2nc3ccccc3[nH]2)ccc1Oc1ncccc1[N+](=O)[O-]	15	-7%	-3.9%	0%	7.9µM*	2%	3.4
COCCN1C(=O)N[C@@H](c2cccs2)C(C(=O)OC)=C1C	2.1&1.7	8%	-1.8%	16%&5%	0.0%	nt	-0.9
CC(CNC(=O)COc1ccccc1)OC(=O)Nc1ccc(Cl)c(Cl)c1 (configuration not stated)	0.1	-9%	-12%	2%	6.4%	3%	0.1
Cc1cccc(NCc2cc(Cl)ccc2O)n1	-0.4	-15%	-3.7%	6%	-1.4%[38.3 µM]	3%	0.7
COC(=O)/C=C1\NCCSC1=O	1.3	11%	-1.4%	5%	-3.5%[38.3 µM]	-4%	-0.7
CCOC(=O)c1nnc(-c2ccccc2)nc1Oc1ccc(Cl)cc1	-2.5	1%	-3.4%	6%	-0.2%	?	-4.3
CCC(Oc1nc2ccccc2nc1-c1ccccc1NC(C)=O)C(=O)c1ccccc1 (configuration not stated)	-0.9	-6%	-4.5%	-6%	4.5%[38.3 µM]	-45%[inhibitor]	-1.1
CCN(CC)C(=O)C1=C(C)N(Cc2ccc(F)cc2)C(=O)C(CC(=O)NCc2cccs2)C1 (configuration not stated)	nt	nt	-2.0%	nt	-1.2%	2%	0.7
Cc1cccc(OCCNc2ccc(C(F)(F)F)cc2[N+](=O)[O-])c1	3.5	8%	2.3%	1%	8.9%	-13%	-1.7
CC1CCN(CC(=O)N2CCCc3c2c(=O)oc2ccc(OCc4ccccc4)cc32)CC1	0.6	-1%	?	?	?	0%	-2.3
Cc1nc2ccccc2c(C(=O)O)c1-c1ccccn1	nt	13%	nt	nt	0.2%	3%	-0.1
C#Cc1ccc([C@@H]2C=C(C(=O)NC3CC3)O[C@H](OCCCCO)C2)cc1	2.1	-8%	-0.1%	6%	0.1%	nt	0.1
O=C(Nc1nc2c(s1)CCCC2)Oc1ccccc1	-0.8	5%	1.0%	8%	2.8%	-1%	-2.2

The results go on:
SMILES	Menin-MLL FL inh	gsp antagonist	ClpP mod	Sfp inh	PINK1 modulator	gsp ag	D2 ag
CCN(CCCNC(=O)CNC(=O)c1nn(-c2ccc(OC)cc2OC)c(=O)c2ccccc12)c1cccc(C)c1	-8.1	-24%	-1.3%	-6%	6.4%	35%[15.4 µM]	-2.5
COc1ccc(/C=N/NS(=O)(=O)c2ccc(NC(C)=O)cc2)cc1	3.6	-1%	nt	28%	-0.7%	-9%[15.4 µM]	1.5
CN(C)Cc1c(C(=O)N/N=C/C2CC=CCC2)nnn1-c1nonc1N (configuration not stated)	0.1	5%	nt	10%	2.6%	?	-0.7
Cc1ccc(C)c(CN2CCCN(Cc3cc(C)ccc3C)S2(=O)=O)c1	0.8	2%	-1.2%&1.6%	-2%	3.0%&-1.1%	13%[15.4 µM]	-2.7
CC1CCN(C(=O)c2[nH]cnc2C(=O)Nc2ccccc2F)CC1	nt	nt	-2.5%	nt	0.9%	?	-0.5
Clc1ccc(-n2nnnc2-c2cnc(-c3ccccn3)nc2-c2cccs2)cc1	2.4	-8%	?	?	0.1%	0%	-3.9
CC(C)=CCc1c(O)cc(O)c2c1OC(c1ccc(O)cc1)CC2=O (configuration not stated)	nt	-17%	2.4%	nt	0.6%	nt	4.8
Cc1sc(NC(=O)CN(Cc2ccccc2)C(=O)C(C)C)c(C(N)=O)c1C	1.6	-5%	-2.0%	12%	-0.4%	-22%	2.4
Cc1ccc(C2NC(=NCc3ccccc3)Nc3nc(C)cc(=O)n32)cc1 (configuration not stated)	4.5	2%	nt	?	4.6%	24%[15.4 µM]	2.2
Cc1ccc(S(=O)(=O)n2nc(OC(=O)c3c(F)cccc3Cl)cc2N)cc1	5.5	-12%	1.4%	11%	0.8%	-17%[15.4 µM]	-5.6
CCN(CC(=O)Nc1ccc(OC)cc1)C(=O)c1ccc(Cl)c(S(=O)(=O)N2CCCC2)c1	nt	-7%	-3.2%	nt	-0.3%	5%	1.2
CCN(CC)CCCn1c(=S)[nH]c2cc(C(=O)OC)ccc2c1=O	2.7	-3%	-4.6%	1%	3.6%[38.3 µM]	23%	-2.4
CC1CN(C(=O)CSc2nc(N)cc(N)n2)CC(C)O1 (configuration not stated)	nt	8%	0.1%	nt	1.4%	6%	-1.8
O=C(Cc1cccs1)Nc1ccc(Cl)c(S(=O)(=O)N2CCOCC2)c1	nt	-13%	nt	nt	2.7%	10%[15.4 µM]	-2.7
Cc1ccccc1C(=O)c1cccn1CC(=O)NC(C)c1ccccc1 (configuration not stated)	-3.2	-29%	1.0%	13%	3.7%	-159%[inhibitor]	-0.1
O=C(Cn1cnc2c(nnn2-c2ccc(F)cc2)c1=O)NCC1CCCO1 (configuration not stated)	4.5	8%	?	-2%	-2.7%	10µM*	-6.0
O=C(COC(=O)c1cccc(C(=O)OCC(=O)NC2CC2)n1)NC1CC1	-0.7	-11%	nt	-11%	1.0%	23%[15.4 µM]	-11
CCOc1ncccc1C(=O)NCc1ccccc1Cl	-1.5	7%	-1.6%	18%	-0.2%	2%	-4.7
Cc1ccc(S(=O)(=O)NNC(=O)C2COc3ccccc3O2)cc1C (configuration not stated)	1.0	7%	-1.7%	16%	-0.7%	24%	-3.7
Cc1ccccc1C(=O)NC1CCN(C(=O)NCc2ccccc2)CC1	-3.9	-8%	3.0%	16%	-0.1%	0%[15.4 µM]	-4.5
CCN(C(=O)CSc1nnnn1C)C1CCS(=O)(=O)C1 (configuration not stated)	nt	10%	0.6%	nt	6.1%	-30%[inhibitor]	0.9
COc1cccc(/C=N/Nc2ccc([N+](=O)[O-])cc2)c1O	6.0	?	-0.5%	-5%	7.0%	-2%[15.4 µM]	-3.1
COc1ccnc(-n2cccc2C=O)c1C#N	2.4	5%	nt	14%	-0.3%	-3%[15.4 µM]	-2.6
C/C(O)=C/c1nc2ccccc2[nH]c1=O	2.6	-17%	?	5%	12%	-3%	-3.7
Cc1csc(NC(=O)CSc2nnc(-c3ccoc3C)n2CCc2ccccc2)n1	4.4	-14%	0.9%	-4%	-2.0%	0%	1.4

Next part
SMILES	Menin-MLL FL inh	gsp antagonist	ClpP mod	Sfp inh	PINK1 modulator	gsp ag	D2 ag
Cc1ccc(OCCC(=O)OCC(=O)C(C)(C)C)cc1	2.0	14%	0.4%	10%	0.1%	-25%	-4.0
COC(=O)/C(C(C)=O)=C(\C=C\N(C)C)N(C)C	0.5	6%	-13%	7%	nt	-36%[inhibitor]	-1.2
COc1ccc(C(=O)NN/C(C)=C/C(=O)C(F)(F)C(F)(F)C(F)(F)F)cc1	-1.2	11%	3.2µM*	6%	-0.6%	-18%	-4.5
CC(C)(C)NC(=O)/C(=C\C=C\c1ccccc1)NC(=O)c1ccc([N+](=O)[O-])cc1	3.6	-15%	nt	-1%	6.0%	-12%[15.4 µM]	6.3
CCOn1c(=O)c(-c2ccc(Cl)cc2)[n+]([O-])c2ccccc21	-4.2	4%	-8.0%	-2%	-1.8%	-5%	-1.6
COc1ccc(S(=O)(=O)N2CCC(C(=O)NCc3cccc(OC)c3)CC2)cc1	4.9	-3%	-1.7%	3%	0.3%	11%	-0.8
CCOc1ccccc1OCCCNCc1ccccc1	-4.2	14%	0.2%	-5%	1.3%	6%[15.4 µM]	2.9
Cn1ccc(C(=O)Nc2ccc(Br)cc2Br)n1	-3.2	4%	-2.6%	19%	3.0%	6%[15.4 µM]	-0.6
Nc1c(C(=O)CSc2nnc(N3CCOCC3)n2-c2cccc(F)c2)c(=O)[nH]c(=O)n1C1CC1	nt	10%	-0.8%	nt	1.5%	-30%	-0.7
COCc1nnc(NC(=O)c2ccc(S(=O)(=O)N(CC(C)C)CC(C)C)cc2)o1	-2.1	-1%	2.7%	24%	1.5%	?	-1.2
Cc1onc(-c2ccccc2)c1C(=O)N1CCN(C(=O)c2ccco2)CC1	-0.3	-3%	0.4%	2%	4.0%[38.3 µM]	17%	-0.2
Cc1ccc(CN2CCC(CNS(=O)(=O)c3ccc(-c4ccc(=O)[nH]n4)s3)CC2)cc1	nt	2%	-16%	5%	3.4%	-2%	-3.8
CCOC(=O)c1c(NC(=O)C2=C(C)NC(=S)NC2c2ccccc2C(F)(F)F)sc(C)c1C (configuration not stated)	12	-2%	?	16µM*	1.9%	1%[15.4 µM]	1.7
